Screens deposited in PubChem by National Center for Advancing Translational Sciences (NCATS).
PINK1 expr mod – A Quantitative High throughput Screen to Identify Chemical Modulators of PINK1 Expression | PINK1 immunofluorescence, high-content cytometry, 24 h | Potency, µM (doses to about 76.6 µM), inactives show top-dose activation (PINK1 increase), most hits filed as activators | 0.2% of 410,000 active | AID 624263, 2012; active = well fitted activation curve with a large enough effect; inconclusive = small, poorly fitted or top-dose-only effect; inactive = flat fitted curve, though single readings scatter; cell line not stated here;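 also: potency is read from the fitted curve at half-maximal effect; % of control where 0% means no effect; nearly all actives have a fitted effect of over 65% in size; a mitochondrial uncoupler was the plate control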
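Measures PINK1 amount and localization on or inside mitochondria by immunofluorescence. Stable cells get compounds at 5 concentrations for 24 hours before fixation and staining; CCCP controls included.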
D2 ag – Beta-Arrestin HTS for Positive Allosteric Modulators of the Human D2 Dopamine Receptor: Agonists; 0.084% of 360,000 active; AID 624465, 2012; DiscoveRx PathHunter D2 beta-arrestin, luminescence, 90 min; 100% = 57 uM dopamine signal; D(2) dopamine receptor (Homo sapiens), P14416; activation, % (test concentration not listed); in the data active = activation above about 40%; inconclusive = about 15% to 40%; inactive = below about 15%; also: compound concentration not given in the record; the text of the record calls up to 30% inactive
Target sequence (P14416 whole entry, looked up): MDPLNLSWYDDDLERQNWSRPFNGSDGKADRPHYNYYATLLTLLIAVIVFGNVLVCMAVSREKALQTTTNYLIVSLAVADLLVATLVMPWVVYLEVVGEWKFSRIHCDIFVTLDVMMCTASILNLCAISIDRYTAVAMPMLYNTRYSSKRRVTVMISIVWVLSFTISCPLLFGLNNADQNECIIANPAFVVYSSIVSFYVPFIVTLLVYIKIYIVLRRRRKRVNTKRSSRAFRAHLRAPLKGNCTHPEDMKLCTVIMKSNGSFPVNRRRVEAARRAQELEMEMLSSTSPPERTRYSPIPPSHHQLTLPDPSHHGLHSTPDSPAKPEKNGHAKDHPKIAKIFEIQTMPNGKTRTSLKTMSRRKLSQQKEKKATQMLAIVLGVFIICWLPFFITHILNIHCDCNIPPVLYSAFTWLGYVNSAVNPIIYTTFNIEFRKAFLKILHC
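Agonist mode: compounds alone added to overnight-plated D2 PathHunter cells for 90 min at 37 C, with 57 uM final dopamine (EC100) defining full response. Beta-arrestin recruitment detected by chemiluminescent reagent, read after 1 h at ambient temperature.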
Six1-Eya2 blk – qHTS Assay for Inhibitors of the Six1/Eya2 Interaction; 0.56% of 360,000 active; AlphaScreen GST-Six1/His-Eya2 binding, biochemical; active compounds read low; control for the full effect not named in the record; activity change, % (test concentration not listed); Homeobox protein SIX1 (Homo sapiens) + Protein phosphatase EYA2 (Homo sapiens), …; in the data active = activity change below about -65%; inconclusive = about -30% to -65%; inactive = above about -30%; also: % is scaled to controls: 0 for no effect and ±100 for the full control effect
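GST-Six1 + His-Eya2 (5X stock: 250/500 nM); Tris pH 8.0, 300 mM NaCl, 0.05% BSA, 0.02% Tween 20; GSH donor/Ni acceptor beads; 1 h 37 °C dark; AlphaScreen readout.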
TRPML1 ag – qHTS for Agonists of the Human Mucolipin Transient Receptor Potential 1 (TRPML1); activation, % (no concentration beside the values); 0.12% of 410,000 active; TRPML1-expressing cells, Ca2+ dye fluorescence, FDSS; host cell line not named in the record; reference of the full effect not given here; Mucolipin-1 (Homo sapiens), Q9GZU1; in the data active = activation above about 50%; inconclusive = about 30% to 50%; inactive = below about 30%; also: 0% is about no effect; the text of the record puts the active cut at 80%
Target sequence (Q9GZU1 whole entry, looked up): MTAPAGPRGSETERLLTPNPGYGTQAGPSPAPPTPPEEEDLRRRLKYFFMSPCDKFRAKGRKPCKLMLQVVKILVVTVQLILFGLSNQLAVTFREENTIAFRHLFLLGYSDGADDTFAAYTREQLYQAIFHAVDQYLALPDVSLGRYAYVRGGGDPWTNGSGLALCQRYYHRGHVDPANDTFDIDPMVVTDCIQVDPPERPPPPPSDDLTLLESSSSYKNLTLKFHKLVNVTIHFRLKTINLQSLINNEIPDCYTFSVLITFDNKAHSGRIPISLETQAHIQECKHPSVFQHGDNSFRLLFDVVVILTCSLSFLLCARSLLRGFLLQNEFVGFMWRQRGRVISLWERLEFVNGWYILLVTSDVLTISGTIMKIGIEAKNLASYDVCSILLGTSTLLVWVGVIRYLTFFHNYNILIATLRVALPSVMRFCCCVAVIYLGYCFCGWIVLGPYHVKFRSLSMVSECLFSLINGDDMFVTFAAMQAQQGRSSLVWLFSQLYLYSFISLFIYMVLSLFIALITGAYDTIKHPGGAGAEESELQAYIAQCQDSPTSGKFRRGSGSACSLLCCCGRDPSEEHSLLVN
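Calcium fluorescence on an FDSS kinetic reader gave the read-out. Tet-induced TRPML1-DL cells were plated overnight, dye-loaded (Ca8 with quencher, 45-90 min, room temperature, dark), then read 110 s after compound addition, and again 110 s after 4uM final 54-4 (EC80).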
D2 PAM – Beta-Arrestin HTS for Positive Allosteric Modulators of the Human D2 Dopamine Receptor: Potentiators | 0.23% of 360,000 active | AID 624464, 2012 | potentiation, % (test concentration not listed) | D(2) dopamine receptor (Homo sapiens), P14416 | DiscoveRx D2 beta-arrestin cells, luminescence, 90 min; 100% = 57 uM dopamine signal; active = potentiation of 50% or more; inconclusive = 30% to 50%; inactive = 30% or less;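 also: compound concentration not given in the record; tested on top of an EC20 dose of dopamine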
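PathHunter beta-arrestin assay in DiscoveRx D2 cells. Compounds were added with an EC20 of dopamine (50 nM final) for 90 min at 37 deg C. Luminescence was read 1 h after detection reagent, with 57 uM dopamine as the EC100 control.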
CtBP-E1A blk – qHTS Assay for Inhibitors of the CtBP/E1A Interaction; CtBP / adenovirus E1A interaction (AlphaScreen); AlphaScreen GST-E1A/His-CtBP binding, 1536-well; active compounds read low; control for the full effect not named in the record; activity change, % (no concentration beside the values); 0.49% of 340,000 active; in the data active means activity change below about -65%; inconclusive means about -30% to -65%; inactive means above about -30%; also: % is scaled to controls: 0 for no effect and ±100 for the full control effect
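GST-E1A and His-tagged CtBP (125 nM each as 5X stock) were preincubated with pin-transferred compound for 2 h at 37 °C in the dark, then glutathione donor and nickel acceptor beads were added for 1 h before AlphaScreen reading.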
Starred values were filed as active, the others as inactive; ? = inconclusive; · = not tested or not shown; & = joins results of further samples; [ ] = remark or other dose.

SMILES	PINK1 expr mod	D2 ag	Six1-Eya2 blk	TRPML1 ag	D2 PAM	CtBP-E1A blk
Cc1cc(C)cc(C(O)c2ncc(-c3ccccc3Cl)[nH]2)c1 (stereo unspecified)	21.7%	3.6	-13.3	-0.3	-16.2	-8.9
O=C(COC(=O)CCC(=O)c1cccs1)Nc1ccc(Cl)cn1	1.1%	2.8	3.1	-1.0	1.0	·
CCN(CC)CCn1nc2c3c(cccc3c1=O)-c1ccccc1-2	0.0%	-3.2	-5.9	0.2	-5.6	-7.5
O=C(N1CCOCC1)C12CC3CC(C1)CC(C(=O)N1CCOCC1)(C3)C2	-2.9%	0.4	1.3	3.5	-8.7	4.1
C=CCSc1ncccc1C(=O)NCCc1ccc(Cl)cc1	10.6%	-1.3	8.7	-1.8	-6.3	6.2
O=C(Nc1ccccc1N1CCOCC1)c1ccc(F)c(S(=O)(=O)N2CCOCC2)c1	-1.8%	-3.3	3.8	0.0	-3.5	-2.0
Cc1ccc(NC(=O)CN2C(=O)NC(Cc3ccccc3)C2=O)c(Br)c1 (stereo unspecified)	15.9%	3.4	-0.1	1.3	-0.8	3.8
COC(=O)c1nc(NC(=O)c2ccc(Cl)cc2)n[nH]1	-6.7%[38.3 µM]	1.5	2.3	0.4	-18.3	-0.8
CCCCNC(=O)CCn1nc(-c2ccc(C)cc2)c2ccccc2c1=O	-1.5%	-1.7	1.6	5.0	-2.7	6.5
COc1ccccc1-c1coc2c(CN3C(C)CCCC3C)c(O)ccc2c1=O (stereo unspecified)	0.2%	-4.6	-1.1	-0.8	2.5	·
CCCCNC(=O)N1CCN(c2ccccc2OC)CC1	1.2%	0.4	7.0	0.0	-1.6	1.4
CC1CCCN(CC(O)COCC2COc3ccccc3O2)C1 (stereo unspecified)	-0.5%	1.8	6.1	1.4	-40.8	6.6
O=C(CCS(=O)(=O)c1ccc(Br)cc1)N1CCN(c2ccccc2F)CC1	1.1%	-3.7	4.9	1.4	-17.9	4.6
CC1=C(C(=O)OCC2CCCO2)C(c2ccccc2OC(C)C)C2=C(CC(c3ccco3)CC2=O)N1 (stereo unspecified)	0.7%	-5.2	-3.9	-0.4	-14.3	1.9
CCOc1cc(Cl)c(NC(=O)c2ccco2)cc1OCC	2.5%	-2.2	-4.5	-1.5	-2.2	3.9
CCC(Sc1nnc(-c2ccco2)n1C)C(=O)Nc1nnc(C)s1 (stereo unspecified)	1.5%	-2.7	-11.7	0.3	-6.5	0.7
CCCCNC(=O)c1nc(-c2ccncc2)oc1-c1ccccc1	1.0%	-1.9	-8.1	-0.7	-3.9	-0.3
CS(=O)(=O)N1CCCC(C(=O)NCCc2ccc(Cl)cc2)C1 (stereo unspecified)	-1.7%[38.3 µM]	-0.1	3.7	-0.4	-8.5	2.5
COc1ccc(-c2cccc(NS(=O)(=O)c3cc([N+](=O)[O-])ccc3Cl)c2)nn1	-0.4%	1.3	5.5	-0.7	-1.1	-5.7
COc1ccc(C(=O)C(C)Oc2cccc(NC(=O)c3cccc([N+](=O)[O-])c3)c2)cc1 (stereo unspecified)	0.5%	-3.4	-12.4	0.2	-27.3	-3.9
Nc1nnc(SCC(=O)Nc2ccc(S(=O)(=O)N3CCOCC3)cc2)s1	2.4%[38.3 µM]	-0.8	-0.5	0.3	3.3	-1.7
O=C(CC(=O)N/N=C/c1cccs1)NCc1ccccc1	-1.0%	-2.9	1.6	0.0	-6.5	4.9
CCOc1cc(C(=O)Nc2ccc(C)cc2C)ccc1OCC(=O)N1CCCCC1	-0.8%	-4.5	-8.5	-0.3	-1.5	-15.9
C=CCn1cccc(C(=O)Nc2ccc(OC)cc2)c1=O	1.2%	-9.8	3.9	0.3	-7.1	2.7
O=C(Cc1ccc(NS(=O)(=O)c2ccc(F)cc2)cc1)NCc1ccccc1	-3.0%	2.9	-6.0	0.3	-4.7	6.2
CCC/C=N/Nc1nc2ccccc2s1	1.1%	3.1	-8.9	0.2	-6.0	-7.4
Cc1ccnc(NS(=O)(=O)c2ccc(Oc3ccccc3)cc2)c1	·	2.2	-0.4	0.5	2.8	-9.8
CC1(C)NC(=O)N(CCOCCOc2cccc(Oc3ccccc3)c2)C1=O	4.5%[38.3 µM]	-3.1	24.3	1.7	-2.2	41.2
Cc1ccccc1NC(=S)c1ccc2ccccc2n1	0.0%	3.8	7.5	2.8	1.4	·
Cc1c(CCOC(=O)c2cc([N+](=O)[O-])cc([N+](=O)[O-])c2)sc[n+]1CCCCS(=O)(=O)[O-]	-0.1%	2.9	7.6	1.9	-4.7	9.2
O=C(O)CSCC(=O)Nc1cccc2ccccc12	·	-4.9	-1.3	0.3	-4.4	-8.0
O=C(NCC1CCN(Cc2ccc(F)cc2)CC1)Nc1cc(F)ccc1F	0.4%	-4.4	0.0	1.5	3.1	·
CCCN1CCC(C)(C(=O)Nc2ccccc2Oc2ccccc2)C1 (stereo unspecified)	1.6%	-4.7	-6.8	-0.8	-13.6	3.0
COc1cc(NC(C)CCCN)c2nc(C)ccc2c1Oc1ccc(F)cc1 (stereo unspecified)	29.1%	-1.1	46.9	-0.6	-10.6	0.0
CCOC(=O)Cc1cc(=O)[nH]c(/N=C(\N)Nc2ccc(C)cc2C)n1	-2.2%	-1.9	0.6	-0.1	-11.6	10.7
COc1ccc(N2CCC(CNC(=O)Nc3ccc(OC)cc3OC)C2)cc1 (stereo unspecified)	-2.2%	-0.8	?	-1.1	-12.0	-18.9
CCCC[n+]1ccn(-c2nc3ccccc3nc2[N-]S(=O)(=O)c2ccc(Cl)cc2)c1	5.1%	-4.1	-8.1	-0.5	-5.9	-24.0
O=C1c2ccccc2C(=O)N1Cc1nn2c(-c3ccc(Cl)cc3)nnc2s1	4.1%	-1.5	6.4	0.1	-0.4	-2.5
Clc1nc(-c2cccnc2)nc2scc(-c3ccccc3)c12	7.1%	0.6	2.0	2.4	-14.0	·
CCCCNc1c(-c2ccc(-c3cccc(Cl)c3)cc2)nc2ccc(Cl)cn12	3.6%	-4.6	13.1	0.7	-7.9	·
O=C(c1cccc(S(=O)(=O)N2CCOCC2)c1)N1CCCC1	-1.8%	-0.2	9.8	0.3	-7.9	-7.7
Cc1nn(CC(=O)c2ccccc2)c(=O)c2nn(-c3ccccc3F)c(C)c12	-0.1%	-8.6	-12.3	0.0	-8.8	-20.1
N#CC1(NC(=O)CSc2nnc(Nc3ccccc3F)s2)CCCC1	1.4%	0.2	-1.2	2.3	1.5	-4.2
COC(=O)Cc1ccc(NC(=S)N2CCN(CCO)CC2)cc1	0.3%	-1.1	-15.3	-0.9	-8.4	1.8
C[C@H](NC(=O)[C@@H]1Cc2ccccc2CN1C(=O)OC(C)(C)C)C(=O)NC1CCCCC1	-0.5%	-2.2	2.6	0.5	-7.3	5.9
CCn1c(CCNC(=O)c2ccc(OC)cc2)nnc1SCc1ccc(Cl)cc1Cl	-2.9%	1.8	-12.0	0.8	-11.1	8.9
O=C(c1ccc(COc2c(F)c(F)cc(F)c2F)o1)N1CCN(c2ccc(Cl)cc2)CC1	·	0.4	5.4	2.4	6.7	9.6
CC(C)NC(=O)N(C)C[C@H]1Oc2ccc(NC(=O)Cc3ccccc3)cc2C(=O)N([C@H](C)CO)C[C@@H]1C	0.1%	-0.2	0.6	1.0	-1.3	2.7
Clc1cccc(CNCC2CCCO2)c1Cl (stereo unspecified)	12.5%	-4.1	-1.1	0.8	-1.7	13.7
CN(Cc1ccc(F)cc1)C(=O)CCc1nnc(-c2ccccc2)o1	-0.7%	-2.4	1.5	-1.0	-5.5	1.8
CCC1CN(C(=O)NCc2ccc(F)cc2)c2cc(C)ccc2O1 (stereo unspecified)	-0.2%&-1.0%	-3.3	-0.6	2.8&0.0	-3.8	7.1
C=CCC[C@@H](Cc1ccc(F)cc1)C(=O)OC[C@@H](Cc1c[nH]c2ccccc12)NC(=O)[C@@H](CC=C)CC(=O)N[C@H](CO)Cc1ccccc1	0.7%	-3.7	-7.0	0.1	1.4	·
CCc1nc2ccc(C(=O)NCc3cccs3)cn2c1N(CC)CCOC	1.1%	-1.4	-0.7	-0.1	-7.7	3.1
COc1cc2sc(-c3ccc(S(C)(=O)=O)cc3)c(C#CCO)c2cc1OC	-0.1%	-1.3	?	1.0	-5.9	?
O=c1[nH]c2ccc(S(=O)(=O)Nc3ccc(Br)cc3)cc2[nH]1	-0.8%	-0.9	-0.6	-0.7	2.8	0.0
O=C(Nc1cccc(Cl)c1)Nc1nnc(CC2=CCCCC2)s1	?	-2.8	8.1	0.6	-2.7	1.4
CCCCN=C1C([N+](=O)[O-])=CC=C2C1=NC1(CCCCC1)N2O	-0.7%	0.1	-4.6	0.2	0.0	-9.6
COc1ccc(OC)c(S(=O)(=O)NCCOC23CC4CC(CC(C4)C2)C3)c1	2.3%	2.6	5.2	1.6	8.6	-2.7
CN(C)S(=O)(=O)c1cccc(NC(=O)c2cccc(N3C(=O)CCC3=O)c2)c1	2.1%	-4.1	-0.5	-0.1	4.8	3.0
COc1ccc(C)cc1N(CC(=O)Nc1ccc(S(=O)(=O)N2CCCC2)cc1)S(C)(=O)=O	1.2%	-1.5	3.8	0.9	22.2	-1.6
CCS(=O)(=O)N1CCC(C(=O)Nc2ccc3c(c2)CCC3)CC1	0.6%	-6.9	-1.7	-0.2	-5.4	-11.9
O=C(NCCS(=O)(=O)N1CCN(c2ccccc2F)CC1)c1cc(=O)c2ccccc2o1	9.9%&-0.3%	2.9	-1.3	0.3&2.2	-2.6	0.3
CCc1cc2c(=O)[nH]c(-c3ccncc3)nc2s1	4.8%	-2.1	-8.2	1.5	-7.5	-10.2

Fetched one by one from the list above (2):
SMILES	PINK1 expr mod	D2 ag	Six1-Eya2 blk	TRPML1 ag	D2 PAM	CtBP-E1A blk
Nc1nnc(SCC(=O)Nc2ccc(S(=O)(=O)N3CCOCC3)cc2)s1	2.4%[38.3 µM]	-0.8	-0.5	0.3	3.3	-1.7
O=C(NCCS(=O)(=O)N1CCN(c2ccccc2F)CC1)c1cc(=O)c2ccccc2o1	9.9%&-0.3%	2.9	-1.3	0.3&2.2	-2.6	0.3

Some of the entries so far, field by field:
canonical_smiles: CN(C)S(=O)(=O)c1cccc(NC(=O)c2cccc(N3C(=O)CCC3=O)c2)c1
  PINK1 expr mod: 2.1%	D2 ag: -4.1	Six1-Eya2 blk: -0.5	TRPML1 ag: -0.1	D2 PAM: 4.8	CtBP-E1A blk: 3.0

canonical_smiles: COc1ccc(C)cc1N(CC(=O)Nc1ccc(S(=O)(=O)N2CCCC2)cc1)S(C)(=O)=O
  PINK1 expr mod: 1.2%	D2 ag: -1.5	Six1-Eya2 blk: 3.8	TRPML1 ag: 0.9	D2 PAM: 22.2	CtBP-E1A blk: -1.6
